Assay outcomes (PubChem)
KCNQ2 enhance = potentiators of rat KCNQ2 potassium channel | CHO-K1 KCNQ2, FluxOR thallium flux fluorescence; stronger effect = higher value | B-score at 10 µM | actives 0.54% (n = 310,000) | AID 2239, 2010;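 active means fluorescence ratio B-score at least 3 SD of library B-scores, with initial fluorescence B-score within 3 SD, cut at about 5.3 in these data; same plate scores as AID 2156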;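 further: B-score of peak minus minimum over baseline fluorescence ratio after K+ and Tl+ stimulus; positive B-score means potentiation of KCNQ2 with more thallium influx and brighter signal; only the inactives scoring about 0 or higher are listed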
Target sequence (O88943 whole entry, looked up): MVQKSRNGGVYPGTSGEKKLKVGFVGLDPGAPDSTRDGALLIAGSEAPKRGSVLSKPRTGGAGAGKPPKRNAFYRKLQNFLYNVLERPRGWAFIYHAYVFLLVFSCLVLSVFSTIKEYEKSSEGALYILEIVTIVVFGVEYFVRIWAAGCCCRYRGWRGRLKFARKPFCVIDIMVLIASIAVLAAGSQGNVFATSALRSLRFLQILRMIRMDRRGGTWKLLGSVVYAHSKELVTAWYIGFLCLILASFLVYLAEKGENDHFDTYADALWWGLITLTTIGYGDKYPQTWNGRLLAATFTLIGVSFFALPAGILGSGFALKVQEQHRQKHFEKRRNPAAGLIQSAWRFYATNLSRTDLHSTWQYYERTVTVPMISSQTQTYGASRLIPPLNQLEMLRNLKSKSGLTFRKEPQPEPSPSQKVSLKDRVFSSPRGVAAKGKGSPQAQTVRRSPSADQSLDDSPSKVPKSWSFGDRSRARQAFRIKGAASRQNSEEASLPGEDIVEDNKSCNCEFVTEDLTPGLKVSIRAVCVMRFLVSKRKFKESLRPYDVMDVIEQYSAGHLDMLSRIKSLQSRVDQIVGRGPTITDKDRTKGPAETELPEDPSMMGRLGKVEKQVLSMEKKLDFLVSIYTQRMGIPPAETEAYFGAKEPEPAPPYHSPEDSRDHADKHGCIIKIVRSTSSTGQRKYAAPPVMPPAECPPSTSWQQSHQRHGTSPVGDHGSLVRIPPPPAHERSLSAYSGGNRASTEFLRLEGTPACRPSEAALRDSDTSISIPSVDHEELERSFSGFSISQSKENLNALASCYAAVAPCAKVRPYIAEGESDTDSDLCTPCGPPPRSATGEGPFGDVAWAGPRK
KCNQ2 enhance baseline = also measured in KCNQ2 enhance; calls as there; B-score; compound at 10 µM; measured here: initial fluorescence intensity artifact check;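 brightness before thallium and not channel activity; 0 = typical well and far values either way flag optical interference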
Active calls of the source: *.

KCNQ2 enhance,KCNQ2 enhance baseline,structure
2.1,-1.8,CN(C)S(=O)(=O)c1ccc2c(c1)C(=NNC(N)=O)c1cc(S(=O)(=O)N(C)C)ccc1-2
1.1,-0.01,Cc1ccc(NC(=O)COc2ccc(/C=C3/NC(=O)NC3=O)cc2)cc1
0.81,-0.04,c1ccc(-c2cnnc3ccccc23)cc1
1.5,-0.09,O=C(c1cccc(S(=O)(=O)N2CCCC2)c1)N1CCN(c2ccccc2)CC1
0.26,-0.06,CCSc1nnc(-c2ccccc2N)c(=O)[nH]1
0.86,0.05,O=C(O)CC1SC(=Nc2ccccc2)N(c2ccccc2)C1=O (stereo not drawn)
0.43,-1.1,Cc1nnc(SCC(=O)Nc2ccccc2)n1CCc1ccccc1
0.07,0.28,COc1ccc(-c2cc(=O)oc3c(C)c(OCc4nn[nH]n4)ccc23)cc1
0.69,-1.2,CCn1c(C)c(C(C)=O)c(N2CCN(c3cccc(Cl)c3)CC2)nc1=S
0.05,0.27,Fc1ccc(-c2nnn(Cc3nc4ccccc4s3)n2)cc1
0.2,-1.2,COc1ccc(C2CC(=O)NC(=O)C2)cc1
1.1,1.6,Cc1nc(OCC(C)C)c2sc3nc4c(cc3c2n1)COC(C)(C)C4
0.39,-1.3,COc1ccc(C(=O)ON=C2CCN(c3ccc([N+](=O)[O-])cc3)CC2)cc1
1.5,-0.11,CCOC(=O)C1(Cc2ccc(OC)cc2)CCN(C(=O)CCn2ccc(C)n2)CC1
0.89,-1.8,O=C1CNC(=O)N1
1.6,-0.66,CCSc1ncnc2c1sc1nc3c(cc12)COC(C)(C)C3
1,-0.01,COc1ccccc1NC(=O)Nc1nnc(C(C)C)s1
0.33,-0.01,NC(=O)C1=C[C@@H](c2ccc(Br)cc2)C[C@@H](OCCCCO)O1
0.89,-0.37,Cc1nnc(SCC(=O)N(C)c2c(N)n(Cc3ccccc3)c(=O)[nH]c2=O)n1Cc1ccccc1
0.33,0.04,CN(C(=O)CSc1nc(N)cc(N)n1)C1CCS(=O)(=O)C1 (stereo not drawn)
0.01,-0.8,COc1ccccc1CNC(=O)c1cn(C)c2ccc(S(=O)(=O)N3CCCCC3)cc2c1=O
1.3,0.3,CC(NC(=O)c1cccs1)C1CCCO1 (stereo not drawn)
0.3,-1.2,O=C(O)CCC(=O)N1CCN(c2ncccc2C(F)(F)F)CC1
0.62,-0.03,Nc1ccc(SC(F)(F)F)cc1C(=O)c1ccccc1
0.47,2.7,Cc1ccc(NC(=O)N2CCCC2C(=O)NCC2CCCCC2)cc1 (stereo not drawn)
0.23,-0.02,O=C(NCCN1CCOCC1)c1cc2cc([N+](=O)[O-])ccc2s1
0.34,-0.33,CCOc1cc(/C=N/NC(=O)CN2CCOCC2)ccc1OCc1ccccc1
1.7,1.3,Cc1onc(-c2c(Cl)cccc2Cl)c1C(=O)N=C(N)N1CCOCC1
0.8,0.13,COc1cc(CNCc2ccccc2Cl)ccc1OCC(=O)NC1CCCCC1
1.7,-0.06,Cc1ccnc2nc(C(=O)Nc3ccc4c(c3)OCO4)nn12
0.66,-1.6,Cc1cc(NC(=O)CCC(=O)N(c2ccccc2F)C(C(=O)NC2CCCC2)c2ccccc2)no1 (stereo not drawn)
1,1.6,O=C(Nc1ccc(F)cc1Cl)C1CCN(C(=O)Nc2ccccc2)CC1
1.9,-0.63,Cc1ccc(SC(C)C(=O)Nc2cccnc2)cc1 (stereo not drawn)
0.01,-0.55,CCS(=O)(=O)N1CCN(S(=O)(=O)c2ccc3c(c2)OCCO3)CC1
0.15,-0.56,COc1cc(NC(=O)c2cccc(COCC(F)(F)C(F)F)c2)cc(OC)c1OC
0.15,0.6,COc1ccc(-c2nnnn2C)cc1S(=O)(=O)NCc1ccccc1
0.01,-0.72,CCCn1c(CCNc2nc(-c3ccc(Cl)c([N+](=O)[O-])c3)cs2)nc2cc(Cl)c(Cl)cc21
0.79,0.51,CC(=O)NC1(c2ccccc2)CCN(Cc2nnnn2C(C)(C)C)CC1
2.7,-2.5,COc1ccc(NC(=O)CC2CC3CCC2C3)cn1 (stereo not drawn)
0.82,-0.26,CS(=O)(=O)c1ccc2nc(NC(=O)CCC(=O)c3cccs3)sc2c1
0.93,1.6,Cc1c(Cc2ccccc2)c(=O)oc2c(CN(C)C)c(O)c(Cl)cc12
0.86,-0.61,COc1cc2[nH]c(=O)n(CCC(=O)NC3CCCC3)c(=O)c2cc1OC
1.6,-1.2,COC(=O)c1ccc(CN2CCCC(CCC(=O)NCc3ccc(C)o3)C2)cc1 (stereo not drawn)
0.21,0.16,O=C(c1ccc(CS(=O)c2ccccc2Cl)o1)N1CCOCC1 (stereo not drawn)
0.28,1.5,COc1ccc(-c2nnc(NC(=O)c3ccccc3C)o2)cc1
2,0.31,COc1ccc(C23CC4CC(CC(C(=O)O)(C4)C2)C3)c(F)c1
0.9,1,COc1ccc(C(=O)C2CCCN(S(=O)(=O)c3cccc(C)c3)C2)c(C)c1 (stereo not drawn)
1.2,0,CCNc1ccc(C(=O)OCC(=O)NCc2ccc(C)cc2)cc1[N+](=O)[O-]
0.24,0.95,Nc1c(N(Cc2ccccc2)C(=O)COc2cccc(Cl)c2)c(=O)[nH]c(=O)n1Cc1ccccc1
0.83,-0.87,N#Cc1cc[n+](CC(=O)c2ccc(NC(=O)c3ccccc3)cc2)cc1

Remaining list, next part:
KCNQ2 enhance,KCNQ2 enhance baseline,structure
0.44,0,Cn1c(SCC(=O)NC2CC2)nnc1C(F)(F)F
1.8,0.43,CNC(=O)c1c(NC(=O)c2ccco2)sc2c1CCC2
1.3,-0.7,CN(C)S(=O)(=O)c1cccc(NC(=O)c2ccc(Sc3nncn3C)c([N+](=O)[O-])c2)c1
0.24,1.2,S=C(NCc1ccccc1)Nc1ccc2cn[nH]c2c1
0.12,1.1,CCO[C@H]1OC(C(=O)O)=C[C@@H](C(C)(C)C)[C@@H]1CCCO
0.32,0.77,Cc1cc(C)n(-c2nc(N(C)C)nc(N3CCOCC3)n2)n1
0.58,-0.24,Cc1nn(C(C)C(=O)NCCN2CCCC2)c(=O)c2c1sc1ccccc12 (stereo not drawn)
0.57,1.1,COc1cc(C(=O)NNC(=O)C2CCCC2)cc(OC)c1OC
1.5,0.06,C/C(CC(=O)Nc1ccc2c(c1)OCCO2)=N\NC(=O)c1ccccc1Cl
1.6,-0.18,CC(O)c1nc2ccccc2n1CC(=O)Nc1ccc(F)cc1Cl (stereo not drawn)
0.47,-0.08,COCCNC(=O)C1(C)C=CC2(CCCCC2)N1C(=O)c1ccccc1 (stereo not drawn)
0.03,0.58,Cn1c(=O)c2c(nc(SCC(=O)NC3CCCC3)n2C)n(C)c1=O
0.12,-0.06,Cc1cccc(C2c3[nH]c4ccccc4c3CCN2C(=O)c2cc(CC(C)C)[nH]c(=O)n2)n1 (stereo not drawn)
1.7,0,Cc1occc1C(=O)N/N=C/C(Br)=C/c1ccccc1
18*,-0.6*,COc1cc(C(=O)NC(=S)N(CCc2ccccc2)CCc2ccccc2)cc(OC)c1OC
0.55,0.96,CN1N=C2c3ccccc3CCC2C1c1ccc(C(F)(F)F)cc1 (stereo not drawn)
0.62,2.6,CCOc1cc(C=O)c(Br)cc1OC1CCCC1
1.4,0.7,CCN(CC)C1CCCCC1NS(=O)(=O)c1ccc(Cl)cc1 (stereo not drawn)
1.7,1.4,O=C(O)CSc1cn(Cc2ccccc2)c2ccccc12
0.28,-0.81,Cc1ccc(O)c(NC(=O)CCC2CCCCC2)c1
0.03,-0.89,Cc1c(C(=O)N2CCN(Cc3ccc4c(c3)OCO4)CC2)cccc1[N+](=O)[O-]
3.3,-0.22,N#Cc1cc2c(nc1SCC(=O)NCc1ccc3c(c1)OCO3)CCCCC2
2,1.4,O=C(Nc1cccc(O)c1)C(Cc1ccccc1)N1C(=O)c2cccc3cccc(c23)C1=O (stereo not drawn)
0.37,1.1,COC(=O)c1sccc1NC(=O)COc1ccc(Cl)cc1Cl
0.65,-2.8,O=C(CN1C(=O)NC2(CCCC2)C1=O)Nc1ccc(F)c([N+](=O)[O-])c1
0.36,-2.5,CC(=O)C1=NOC2C(=O)N(c3ccc(Cl)cc3)C(=O)C12 (stereo not drawn)
1.4,-0.9,CCC(C)(C)NC(=O)/C=C/c1cccs1
1.2,0.24,Cc1cccc(-n2c(-c3csc(C)c3)n[nH]c2=S)c1
0.8,-0.41,Cc1[nH]c2ccc(S(N)(=O)=O)cc2c1C
0.09,-0.92,COc1ccc(-c2cc(C(=O)N3CCCCCC3)no2)cc1OC
0.55,0.13,CCn1ncc(Br)c1C(=O)Nc1ccc(-c2ccno2)cc1
0.87,-0.2,CC1CCc2cccc3c2N1c1cc(C#N)c(C#N)cc1O3 (stereo not drawn)
0.05,-0.1,Cc1cc(NC(=O)c2c(-c3c(Cl)cccc3Cl)noc2C)n(C)n1
0.46,-0.71,COc1ccccc1C(=O)N/C(=C\c1cn(S(=O)(=O)N(C)C)c2ccccc12)C(=O)N1CCCC1
0.07,-2.4,Cc1nc2ccccc2cc1OCc1ccc(Cl)cc1
0.61,0,Cc1ccc(NC(=O)Nc2nnc(CSCCOc3ccc(Cl)cc3)s2)cc1
0.69,-0.17,Cc1ccc(-c2n[nH]c(=O)c3ccccc23)cc1S(=O)(=O)NCCO
0.07,0.27,O=C(ONC1=NCCCCC1)c1ccc(Cl)cc1
1.9,-0.2,COc1ccc(C(=O)NCCc2nnc3ccc(SCC(=O)Nc4cc(C)on4)nn23)cc1
1.5,-0.48,O=C(Nc1ccc(NC(=O)c2cccs2)cc1)c1ccc(Br)o1
0.61,2.4,COc1cc(/C=C(/NC(=O)c2ccccc2)C(=O)N2CCN(C)CC2)c([N+](=O)[O-])cc1OC
0.41,0.79,Cc1ccc2[nH]c3c(=O)n(CCc4cnc[nH]4)cnc3c2c1
0.05,0.94,CCCSc1ccc(-c2nn(-c3ccccc3)cc2/C=C(/C#N)C(=O)NCCCOC)cc1
1,-1.4,O=C(CCC(=O)NC1CCN(Cc2ccccc2)CC1)NCc1ccco1
1.8,1.4,COc1ccc(/C(O)=C2\C(=O)C(=O)N(Cc3ccco3)C2c2ccc(OC)cc2OC)cc1 (stereo not drawn)
0.34,1.1,CCc1nc(Nc2ccc(OC)c(OC)c2)c2nnn(Cc3ccccc3Cl)c2n1
0.55,-0.81,CCOC(=O)N1CCN(CC(O)COCCC23CC4CC(CC(C4)C2)C3)CC1 (stereo not drawn)
0.28,-0.95,CC(=O)Nc1ccc(S(=O)(=O)N=S(C)(C)=O)cc1
1.4,0.01,c1csc(CNCCN2CCOCC2)c1
0.46,-0.05,COC(=O)c1c(-c2ccc(F)cc2)csc1NC(=O)C1CCCO1 (stereo not drawn)

More records
KCNQ2 enhance,KCNQ2 enhance baseline,structure
0.58,0,COc1cccc(-c2nnc3sc(-c4ccccc4)nn23)c1
2.3,0,COCCCNC(=O)COC(=O)c1ccc(-c2nc3ccccc3s2)s1
0.06,-0.84,CCC(C)c1ccc(NC(=S)NCCn2cc(Cl)cn2)cc1 (stereo not drawn)
1.7,0.6,CCN1CCN(c2ccc(S(=O)(=O)N3CCOCC3)cc2NC(=O)c2sccc2C)CC1
0.76,-1.3,C=CCNS(=O)(=O)c1ccc(N2C(=O)c3ccccc3C2=O)cc1
0.68,-0.23,O=C(O)COCC(=O)Nc1ccc(-n2nc(C(F)(F)F)cc2-c2cccs2)cc1
2.6,-0.83,Cc1cccc(C(=O)OCC(=O)c2c(N)n(CC(C)C)c(=O)n(C)c2=O)c1O
0.08,0.25,O=C(COc1ccc(Cl)cc1)Nc1c(-c2cccs2)nc2ccccn12

Given with two lines to a compound: 2 of the compounds above.
Fields – KCNQ2 enhance, KCNQ2 enhance baseline
- O=C(O)COCC(=O)Nc1ccc(-n2nc(C(F)(F)F)cc2-c2cccs2)cc1
    0.68, -0.23
- Cc1cccc(C(=O)OCC(=O)c2c(N)n(CC(C)C)c(=O)n(C)c2=O)c1O
    2.6, -0.83

In the list so far, these contain an aryl thioether with sulfur outside any ring:
KCNQ2 enhance,KCNQ2 enhance baseline,structure
0.26,-0.06,CCSc1nnc(-c2ccccc2N)c(=O)[nH]1
0.43,-1.1,Cc1nnc(SCC(=O)Nc2ccccc2)n1CCc1ccccc1
1.6,-0.66,CCSc1ncnc2c1sc1nc3c(cc12)COC(C)(C)C3
0.89,-0.37,Cc1nnc(SCC(=O)N(C)c2c(N)n(Cc3ccccc3)c(=O)[nH]c2=O)n1Cc1ccccc1
0.33,0.04,CN(C(=O)CSc1nc(N)cc(N)n1)C1CCS(=O)(=O)C1 (stereo not drawn)
0.62,-0.03,Nc1ccc(SC(F)(F)F)cc1C(=O)c1ccccc1
1.9,-0.63,Cc1ccc(SC(C)C(=O)Nc2cccnc2)cc1 (stereo not drawn)
0.44,0,Cn1c(SCC(=O)NC2CC2)nnc1C(F)(F)F
1.3,-0.7,CN(C)S(=O)(=O)c1cccc(NC(=O)c2ccc(Sc3nncn3C)c([N+](=O)[O-])c2)c1
0.03,0.58,Cn1c(=O)c2c(nc(SCC(=O)NC3CCCC3)n2C)n(C)c1=O
1.7,1.4,O=C(O)CSc1cn(Cc2ccccc2)c2ccccc12
3.3,-0.22,N#Cc1cc2c(nc1SCC(=O)NCc1ccc3c(c1)OCO3)CCCCC2
1.9,-0.2,COc1ccc(C(=O)NCCc2nnc3ccc(SCC(=O)Nc4cc(C)on4)nn23)cc1
0.05,0.94,CCCSc1ccc(-c2nn(-c3ccccc3)cc2/C=C(/C#N)C(=O)NCCCOC)cc1

This is a subset, so the mix of outcomes need not match the whole.
